Screening results as filed in PubChem BioAssay.
FPR binder = human FPR ligands by binding competition, primary screen, cell-based, FPRL1 counter-screen, flow cytometry. fMet-Leu-Phe receptor (Homo sapiens), P21462. FPR-expressing cells, fluorescent ligand binding. inhibition, %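 (tested at 6.7 µM)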. actives 0.74% (n = 24,000). AID 440, 2006;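 note: 0% = buffer wells and 100% = receptor blocker peptide wells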
Target sequence (P21462 whole entry, looked up): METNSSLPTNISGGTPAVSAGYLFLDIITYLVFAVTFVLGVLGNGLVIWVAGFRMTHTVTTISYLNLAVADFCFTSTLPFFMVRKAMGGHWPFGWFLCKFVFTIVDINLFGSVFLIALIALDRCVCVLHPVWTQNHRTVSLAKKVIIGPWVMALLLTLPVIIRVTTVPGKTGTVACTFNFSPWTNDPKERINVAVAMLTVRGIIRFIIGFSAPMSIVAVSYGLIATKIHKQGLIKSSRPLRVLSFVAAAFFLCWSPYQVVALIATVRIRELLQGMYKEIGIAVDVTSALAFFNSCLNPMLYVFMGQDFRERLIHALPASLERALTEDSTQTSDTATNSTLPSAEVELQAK
FPRL1 binder = human FPRL1 ligands by binding competition, primary screen, cell-based, FPR counter-screen, flow cytometry | AID 441, 2006 | FPRL1-expressing cells, fluorescent ligand binding inhibition | N-formyl peptide receptor 2 (Homo sapiens), P25090 | inhibition, %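 (tested at 6.7 µM)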 | actives 0.3% (n = 24,000);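 note: 0% = buffer alone and 100% = receptor blocker peptide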
Target sequence (P25090 whole entry, looked up): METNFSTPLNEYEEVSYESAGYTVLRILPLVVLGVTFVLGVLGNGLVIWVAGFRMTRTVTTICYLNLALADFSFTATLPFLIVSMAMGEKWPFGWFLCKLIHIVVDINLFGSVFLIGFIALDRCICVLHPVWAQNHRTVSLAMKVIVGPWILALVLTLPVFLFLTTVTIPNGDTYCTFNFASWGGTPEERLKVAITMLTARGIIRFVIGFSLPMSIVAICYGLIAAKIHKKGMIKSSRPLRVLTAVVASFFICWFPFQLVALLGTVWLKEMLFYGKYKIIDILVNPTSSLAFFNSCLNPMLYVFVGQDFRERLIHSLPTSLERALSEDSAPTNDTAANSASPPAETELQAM
VCAM-1 augmentation = enhancers of VCAM-1 display on endothelial cells, imaging, high-content imaging, pooled HUVEC, TNFa stimulus (AID 457) | actives 0.2% (n = 10,000) | Pooled HUVEC, TNFa-induced VCAM-1 immunofluorescence imaging; hits of this screen are not shown here | calls only;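 active = a top-ranked rise in VCAM-1 staining upheld on image or statistical review; inactive = the rest, including candidates rejected on review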;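 note: compounds tested at 5 µM in the well; cells exposed to compound for 24 hours before fixing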
VCAM-1 down imaging = inhibitors of TNFa-induced VCAM-1 surface display, imaging, high-content imaging, pooled HUVEC, TNFa stimulus (AID 456). HUVEC TNFa-induced VCAM-1 surface expression, immunofluorescence imaging; numbers were filed only for top-ranked candidate wells. inhibition, % at 5 µM; hits with a dose series show IC50 in µM. actives 0.2% (n = 10,000);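 active = top tenth filtered wells with inhibition above zero that passed visual or statistical confirmation; inactive = the rest, including hits rejected on review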;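 note: 0% = stimulated vehicle wells and 100% = unstimulated cells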
VCAM-1 inhibition = inhibitors of TNFa-induced VCAM-1 surface display, cell-based, plate reader, pooled HUVEC, TNFa stimulus (AID 454) | HUVEC TNFa-induced VCAM-1 surface immunofluorescence, plate reader; numbers were filed only for top-ranked candidate wells | inhibition, % at 5 µM | actives 0.2% (n = 10,000);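 active = compound among top-ranked inhibitors of TNF-induced VCAM-1 adhesion protein staining, with the hit upheld by image or statistical review; inactive = the rest, including hits rejected on review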;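 note: 0% = TNFa with vehicle and 100% = cells without TNFa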
An asterisk follows results filed as active; i = inactive; / = not tested or not shown.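 Rule for the calls, unless noted: active = mean above 30%; inconclusive = self-fluorescent; inactive = the rest.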 The list is partial (hit frequency here may not be typical).

Below each SMILES – FPR binder | FPRL1 binder | VCAM-1 augmentation | VCAM-1 down imaging | VCAM-1 inhibition
- Cc1ccnc(NC(=O)CCCOc2cc(=O)n(C)c3ccccc23)c1
    1 | 2 | / | / | /
- CCOCCCNC(=O)CC1Oc2ccc(C)cc2NC1=O (configuration not stated)
    4 | 6 | i | i | i
- Cc1n[nH]c(C)c1S(=O)(=O)Nc1ccc2c(c1)OCCO2
    -1 | 11 | i | i | i
- COc1cccc(-n2nnc3c(=O)n(Cc4ccc(Br)cc4)cnc32)c1
    -13 | -16 | / | / | /
- O=C(Cn1c(=O)n(CCCC(=O)NC2CCCC2)c(=O)c2ccccc21)NCCC1=CCCCC1
    -6 | 12 | / | / | /
- COC(=O)c1nc2n(n1)C(c1ccc(OC)c(OC)c1)C(C(=O)OC1CCCCC1)=C(C)N2 (configuration not stated)
    0 | 2 | i | i | i
- COC(=O)c1cc2oc3ccccc3c2n1Cc1ccccn1
    1 | 2 | / | / | /
- COCCOC(=O)C1=C(C)NC(C)=C(C(=O)OC(C)C)C1c1cccc([N+](=O)[O-])c1 (configuration not stated)
    2 | 2 | i | i | i
- CCOc1cccc(C2c3c(oc4ccccc4c3=O)C(=O)N2c2ccccn2)c1 (configuration not stated)
    4 | 10 | / | / | /
- O=S(=O)(NCCc1ccncc1)c1cc(Br)ccc1F
    1 | -2 | i | i | i
- CCS(=O)(=O)N1CCCC(C(=O)NCC2CCCO2)C1 (configuration not stated)
    2 | 2 | / | / | /
- O=C(Nc1ccccc1)N(CCN1CCOCC1)Cc1ccccc1F
    0 | 2 | i | i | i
- O=S(=O)(c1ccccc1)N1CCN(S(=O)(=O)c2ccccc2)C1
    -4 | 0 | i | i | i
- O=C(O)C1CCN(c2ncccn2)CC1
    -2 | 2 | / | / | /
- CCn1cc(C2=NOC(C(=O)Nc3cc(C)nn3-c3ccccc3)C2)c(C)n1 (configuration not stated)
    -2 | 0 | i | i | i
- O=C(COc1ccccc1O)Nc1ccc(Cl)cc1
    -4 | -2 | / | / | /
- COc1ccc(NC(=O)C2CCCN(S(=O)(=O)c3cnc[nH]3)C2)cc1 (configuration not stated)
    -3 | -2 | / | / | /
- COc1ccc(/C=N/n2c(=O)[nH]c3c([nH]c4ccc(C)cc43)c2=O)cc1CN1CCOCC1
    -4 | 0 | i | i | i
- N#Cc1cc2sc3nnc(-c4ccncc4)n3c2cc1C#N
    0 | -8 | i | 14µM* | i
- C=CCNC(=O)C1CCN(S(=O)(=O)CC)CC1
    1 | -1 | / | / | /

Continued; the last 2 above are carried over.
Below each SMILES – FPR binder | FPRL1 binder | VCAM-1 augmentation | VCAM-1 down imaging | VCAM-1 inhibition
- N#Cc1cc2sc3nnc(-c4ccncc4)n3c2cc1C#N
    0 | -8 | i | 14µM* | i
- C=CCNC(=O)C1CCN(S(=O)(=O)CC)CC1
    1 | -1 | / | / | /
- O=C(CSc1ncn[nH]1)NC1CC2CCC1C2 (configuration not stated)
    -8 | 4 | i | i | i
- CCOC(=O)c1c(NC(=O)CSc2nnc(-c3ccc(OC)cc3)o2)sc2c1CCC2
    -8 | 0 | i | i | i
- CCN(CC)c1nc2cc(OC)ccc2cc1C#N
    -2 | -6 | i | i | i
- CCOc1ccc(C(=O)N(CN2CCCC2=O)c2ccccc2)cc1
    5 | 1 | / | / | /
- CCOC(=O)N1CCN(S(=O)(=O)c2ccc(OCC)c3ccccc23)CC1
    -1 | -14 | / | / | /
- COc1ccc2cc(C#N)c(NC(C)C)nc2c1
    2 | -6 | i | i | i
- COc1ccccc1C(=O)NCC(c1cccnc1)N(C)C (configuration not stated)
    -3 | -1 | i | i | i
- O=C(C(Cc1ccccc1)n1cccc1)N1CCCCCC1 (configuration not stated)
    -6 | -8 | i | i | i
- CCCn1c(CNS(=O)(=O)c2ccc(C)cc2)nc2ccccc21
    2 | -2 | / | / | /
- Cc1ccc(CN2CC34C=CC(O3)C(C(=O)NCc3ccco3)C4C2=O)cc1 (configuration not stated)
    7 | 8 | / | / | /
- COc1cc(C(=O)N2CCCC(c3nc(-c4cccs4)no3)C2)cc(OC)c1OC (configuration not stated)
    7 | -1 | i | i | i
- O=C1N2CCSC2=NC1(NS(=O)(=O)c1ccccc1)C(F)(F)F (configuration not stated)
    0 | 6 | / | / | /
- CCC(c1nnnn1C(C)(C)C)N1CCN(C2CCCC2)CC1 (configuration not stated)
    10 | -2 | i | i | i
- O=C(CSc1ncnc2c1oc1ccccc12)Nc1ccccc1F
    -3 | 8 | i | i | i
- Cc1ccc(-c2nc(C(=O)NC3CCCCCC3)no2)cc1
    1 | 0 | / | / | /
- COc1ccc(CCNC(=O)C2CCN(Cc3nc(-c4ccccc4F)oc3C)CC2)cc1OC
    -4 | -6 | / | / | /
- O=C(COc1ccccc1)NCCn1ccc2ccccc21
    0 | 2 | / | / | /
- Cc1cc(Cl)ccc1OCCCC(=O)N1CCOCC1
    -11 | -4 | i | i | i
- O=C(NCc1cccs1)C1CCN(S(=O)(=O)N2CCCC2)CC1
    1 | 3 | / | / | /
- O=C(Nc1cccnc1)C(Cc1ccccc1)n1cccc1 (configuration not stated)
    0 | -3 | / | / | /

Some values from the results shown:
O=C(Nc1cccnc1)C(Cc1ccccc1)n1cccc1 (configuration not stated) in FPR binder: 0
CCCn1c(CNS(=O)(=O)c2ccc(C)cc2)nc2ccccc21 in FPR binder: 2

Following part:
Below each SMILES – FPR binder | FPRL1 binder | VCAM-1 augmentation | VCAM-1 down imaging | VCAM-1 inhibition
- COc1ccc(C2CC(=O)N3CN(c4ccc(C)c(Cl)c4)CSC3=C2C#N)cc1 (configuration not stated)
    2 | 2 | / | / | /
- CCOC(=O)C(C)n1cnc2c(cnn2-c2ccc(Cl)cc2)c1=O (configuration not stated)
    -1 | -1 | / | / | /
- CCCC(=O)N(c1ccc(OC)cc1)C1C=CS(=O)(=O)C1 (configuration not stated)
    -1 | 3 | / | / | /
- Cn1c(C(=O)N2CCN(C(=O)c3ccco3)CC2)cc2c(=O)n3ccccc3nc21
    1 | -1 | i | i | i
- CCCCNC(=O)C1CC(=O)N(CCC(C)C)C1 (configuration not stated)
    -3 | 11 | / | / | /
- CCN1C(=O)CSc2ccc(C(=O)NCc3ccco3)cc21
    -5 | -4 | / | / | /
- CCC(=O)N1C(=O)CCN(C(C)=O)c2ccccc21
    7 | 8 | i | i | i
- Cc1ccc2[nH]c3c(c2c1)CN(C(=O)CN1CCN(c2cccc(C)c2C)CC1)CC3
    14 | -8 | i | i | i
- O=c1[nH]c2cc3c(cc2cc1C(c1nnnn1Cc1ccccc1)N1CCCc2ccccc21)OCO3 (configuration not stated)
    17 | 7 | i | i | i
- COc1ccc(N(CC(=O)Nc2ccc3c(c2)OCO3)S(=O)(=O)c2c(C)nn(C)c2C)cc1
    2 | -2 | i | i | i
- Cc1cccc(C)c1NC(=O)C1(N(Cc2ccco2)C(=O)CC2NC(=O)NC2=O)CCCCC1 (configuration not stated)
    -8 | -9 | / | / | /
- CC1CCCc2sc3nc(NCc4ccco4)n4ncnc4c3c21 (configuration not stated)
    0 | -2 | i | i | i
- c1cncc(-c2nnc(SCCSc3nnc(-c4cccnc4)o3)o2)c1
    8 | -2 | i | i | i
- CC(C(=O)N1CC2(C)CC1CC(C)(C)C2)N1C(=O)c2ccccc2C1=O (configuration not stated)
    -6 | 0 | i | i | i
- CCOC(=O)C1CCN(c2cc(=O)n(-c3ccccc3Cl)c(=O)[nH]2)CC1
    -3 | 3 | / | / | /
- Cc1ccc(-c2cc(C(=O)NCc3ccc4c(c3)OCO4)no2)cc1
    1 | 1 | i | i | i
- C=CCn1c(C)cc(C(=O)CSc2nc3ccccc3o2)c1C
    0 | -5 | i | i | i
- CCCOC(=O)C1C2C=CC3(CN(c4ccc(Cl)c(F)c4)C(=O)C13)O2 (configuration not stated)
    9 | 2 | / | / | /
- Cn1c(=O)c2ncn(CC(=O)NCCOc3ccc(C(C)(C)C)cc3)c2n(C)c1=O
    -4 | 5 | i | i | i
- COC(=O)C1C(=O)C2=C(CC1C)NC(=O)CC2c1cccc(C)c1 (configuration not stated)
    2 | -3 | / | / | /

Grouped by structure: the compounds so far containing a cyano group.
Below each SMILES – FPR binder | FPRL1 binder | VCAM-1 augmentation | VCAM-1 down imaging | VCAM-1 inhibition
- N#Cc1cc2sc3nnc(-c4ccncc4)n3c2cc1C#N
    0 | -8 | i | 14µM* | i
- CCN(CC)c1nc2cc(OC)ccc2cc1C#N
    -2 | -6 | i | i | i
- COc1ccc2cc(C#N)c(NC(C)C)nc2c1
    2 | -6 | i | i | i
- COc1ccc(C2CC(=O)N3CN(c4ccc(C)c(Cl)c4)CSC3=C2C#N)cc1 (configuration not stated)
    2 | 2 | / | / | /

New compounds follow
Below each SMILES – FPR binder | FPRL1 binder | VCAM-1 augmentation | VCAM-1 down imaging | VCAM-1 inhibition
- Cc1cccc(C)c1NC(=O)N1CCN(C2CCCCC2)CC1
    -8 | -1 | i | i | i
- COc1cccc(-c2nc(CS(=O)CC(=O)NC3CCCC3)c(C)o2)c1 (configuration not stated)
    1 | 3 | / | / | /
- O=C(NC1(C(F)(F)F)C(=O)Nc2c1c(=O)[nH]c(=O)n2Cc1ccco1)C1CCCCC1 (configuration not stated)
    -4 | 3 | i | i | i
- CC1CCCCN1S(=O)(=O)c1ccc(C(=O)Nc2nnc(-c3cccs3)o2)cc1 (configuration not stated)
    -1 | -4 | / | / | /
- O=C(NCc1cccnc1)c1nnc(Cc2ccc(F)cc2)o1
    7 | 16 | / | / | /
- CC1=C(C(=O)OC2CCCCCC2)C(c2ccc(C)o2)C2=C(CCCC2=O)N1 (configuration not stated)
    -2 | -7 | i | i | i
- Cc1ccc(Cl)c(Nc2ccccc2C(=O)O)c1Cl
    3 | -3 | i | i | i
- CCOCCCNC(=O)Cn1cc2c(n1)CCCC2
    6 | 9 | / | / | /
- CC(C)NS(=O)(=O)c1cccc2nsnc12
    3 | -4 | / | / | /
- O=C(NC1CCCC1)c1ccc2nc[nH]c2c1
    -5 | -5 | i | i | i
- CC(=O)Oc1cc2c(C(=O)NCCCN3CCOCC3)c(C)oc2c2ccccc12
    5 | 2 | / | / | /
- CSc1nnc2n(CCc3ccccc3)c(=O)c3c4c(sc3n12)CCCC4
    0 | 3 | i | i | i
- CCc1cccc(Nc2cc(C)nc3ncnn23)c1
    -1 | 0 | / | / | /
- O=C(O)CCC(=O)Nc1ccc(S(=O)(=O)Nc2nccs2)cc1
    3 | 7 | i | i | i
- CCn1cc(C(=O)NCc2ccco2)c(=O)c2cc(S(=O)(=O)N3CC(C)CC(C)C3)ccc21 (configuration not stated)
    -1 | 2 | / | / | /
- CC1(C(=O)NC2CCCCCCC2)CCC(=O)N1Cc1ccco1 (configuration not stated)
    6 | 4 | / | / | /
- Cn1nc(-c2ccc(Cl)cc2)c2cc(C(=O)NCC3CCCO3)sc21 (configuration not stated)
    -1 | -5 | / | / | /
- O=C(CCCCn1c(=O)c2ccccc2n(CC(=O)Nc2ccccc2)c1=O)NCc1ccco1
    2 | 15 | / | / | /
- FC(F)(F)c1nnc2sc(-c3cccs3)nn12
    4 | -1 | i | i | i
- COc1ccc(-n2c(C)cc(=O)c3c2CC(C)(C)CC3=O)cc1
    19 | 10 | / | / | /
- Cn1c(C(=O)N2CCN(C(=O)c3ccco3)CC2)cc2c(=O)n(C)c3ccccc3c21
    5 | 0 | / | / | /
- COC(=O)Cn1c(CN(Cc2ccccc2)Cc2ccccc2)nc2c1c(=O)[nH]c(=O)n2C
    -7 | -8 | / | / | /
- CCOc1ccccc1NC(=O)c1cc(S(=O)(=O)N2CCC3(CC2)OCCO3)ccc1F
    -2 | -15 | / | / | /
- Cn1c(=O)oc2cc(S(=O)(=O)Nc3ccc(Cl)cc3F)ccc21
    0 | 0 | / | / | /
- O=C1CCCCCN1CSc1nc2ccccc2s1
    10 | 14 | i | i | i
- CC(C)C(=O)N1CCN(c2ccccc2N)CC1
    0 | -6 | / | / | /
- N#Cc1ccc(NC(=O)C2CC(c3ccc(F)cc3)=NO2)cc1 (configuration not stated)
    7 | 5 | / | / | /
- COc1ccccc1N1CCSC1C(N)=O (configuration not stated)
    -8 | -6 | / | / | /
- COc1cccc(OCC(=O)Nc2c(C(=O)Nc3ccc(OC)cc3OC)oc3ccccc23)c1
    -2 | -7 | / | / | /
- Cc1ccc(Cn2nnc3c(=O)n(CC(=O)N4CCCc5ccccc54)cnc32)cc1
    -1 | 1 | / | / | /
